p53 mut binder = binds human mutant p53 on microarray. AID 624136. 0.4% of 17,000 active. small molecule microarray binding, anti-GST fluorescence. calls only;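 active = compounds whose four printed spots each glow above background more than chance allows, each with a p-value under 7%; compounds were printed on slides so no solution concentration is given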;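 also: about 2 pmol printed per array spot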
Myc binder = binds human c-Myc on microarray; P01106; small molecule microarray, His-c-Myc binding, anti-His fluorescence; calls only; 1.5% of 17,000 active; AID 624141;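 active = spot fluorescence over background with P-value below 7% in all four replicate spots, showing protein binding; compounds were printed on slides so no solution concentration is given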;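 also: score is binary with 100 for all four spots passing and 0 otherwise; about 2 pmol printed per array spot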
ID4 binder = binds human ID4 protein on microarray | P47928 | small molecule microarray, Flag-ID4 binding, fluorescence F/B | calls only | 1.2% of 31,000 active | AID 624137;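 active = spot signal over background at p below 0.07 in all four prints; compounds were printed on slides so no solution concentration is given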;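 also: a binder raises fluorescence above local background on the spot; about 2 pmol printed per array spot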
Target sequence (P47928 whole entry, looked up): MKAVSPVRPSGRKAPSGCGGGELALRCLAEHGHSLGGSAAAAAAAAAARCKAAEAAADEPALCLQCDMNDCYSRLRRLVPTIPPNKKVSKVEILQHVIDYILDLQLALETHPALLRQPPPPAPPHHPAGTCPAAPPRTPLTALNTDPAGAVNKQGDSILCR
STAT3 SMM = binders of human STAT3; Small molecule microarray, His-STAT3 binding, anti-His fluorescence; AID 624138; 0.2% of 17,000 active; calls only; P40763;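 active = compounds whose four printed spots each show fluorescence over background unusually high for their array block, chance value under 7%; compounds were printed on slides so no solution concentration is given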;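 also: about 2 pmol printed per array spot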
Target sequence (P40763 whole entry, looked up): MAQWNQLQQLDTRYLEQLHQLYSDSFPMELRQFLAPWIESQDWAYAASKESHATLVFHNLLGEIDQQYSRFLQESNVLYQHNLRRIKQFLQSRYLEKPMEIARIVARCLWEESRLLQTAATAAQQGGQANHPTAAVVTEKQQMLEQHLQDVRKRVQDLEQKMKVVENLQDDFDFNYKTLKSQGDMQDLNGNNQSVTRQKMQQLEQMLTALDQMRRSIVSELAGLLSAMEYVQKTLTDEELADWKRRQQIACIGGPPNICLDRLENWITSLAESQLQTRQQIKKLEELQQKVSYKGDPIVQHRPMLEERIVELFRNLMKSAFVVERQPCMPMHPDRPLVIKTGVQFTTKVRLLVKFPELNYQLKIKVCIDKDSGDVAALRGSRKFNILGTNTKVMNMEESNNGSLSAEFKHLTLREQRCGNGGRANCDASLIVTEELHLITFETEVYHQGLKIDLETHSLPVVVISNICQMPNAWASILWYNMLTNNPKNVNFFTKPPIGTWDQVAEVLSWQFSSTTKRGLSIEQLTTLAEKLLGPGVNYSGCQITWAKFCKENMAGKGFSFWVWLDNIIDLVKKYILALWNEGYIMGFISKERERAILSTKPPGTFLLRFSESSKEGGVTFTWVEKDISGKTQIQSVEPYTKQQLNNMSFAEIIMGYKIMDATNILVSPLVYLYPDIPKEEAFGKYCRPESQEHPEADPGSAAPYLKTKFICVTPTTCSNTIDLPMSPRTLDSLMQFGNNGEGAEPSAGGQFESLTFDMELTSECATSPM
Calls only. A portion of the library, so the mix of outcomes need not match the whole.

What do the screens show for `C[C@@H]1CCCCO[C@@H](CN(C)S(=O)(=O)c2ccccc2)[C@H](C)CN([C@@H](C)CO)C(=O)c2cc(NC(=O)CCC(F)(F)F)ccc2O1`?
p53 mut binder: inactive; Myc binder: inactive; ID4 binder: inactive; STAT3 SMM: inactive

What do the screens show for `C[C@H](CO)N1C[C@H](C)[C@@H](CN(C)Cc2ccc(C(=O)O)cc2)Oc2c(NC(=O)c3ccncc3)cccc2C1=O`?
p53 mut binder: inactive; Myc binder: inactive; ID4 binder: inactive; STAT3 SMM: inactive

How did Cc1ccc(S(=O)(=O)N(C)C[C@@H]2Oc3ccc(NC(=O)Cn4cnnn4)cc3CC(=O)N([C@@H](C)CO)C[C@H]2C)cc1 do in these assays?
p53 mut binder: inactive; Myc binder: inactive; STAT3 SMM: inactive

What do the screens show for `C[C@@H]1CN([C@@H](C)CO)C(=O)Cc2cc(NC(=O)CCCN(C)C)ccc2O[C@@H]1CN(C)S(=O)(=O)c1ccc(Cl)cc1`?
p53 mut binder: inactive; Myc binder: inactive; STAT3 SMM: inactive

Results for Cc1c(C(=O)Nc2sc3c(c2C(=O)NC2CCS(=O)(=O)C2)CCCC3)oc2ccccc12 (stereo unspecified) ?
p53 mut binder: inactive; Myc binder: inactive; ID4 binder: inactive; STAT3 SMM: inactive

How did C[C@@H]1CN([C@H](C)CO)C(=O)Cc2cc(NC(=O)Cc3ccccc3)ccc2O[C@@H]1CN(C)CC1CC1 do in these assays?
p53 mut binder: inactive; Myc binder: inactive; ID4 binder: inactive; STAT3 SMM: inactive

Results for C[C@@H]1CN([C@H](C)CO)C(=O)Cc2cc(NS(C)(=O)=O)ccc2O[C@@H]1CN(C)Cc1ccc(C(F)(F)F)cc1 ?
p53 mut binder: inactive; Myc binder: inactive; ID4 binder: inactive; STAT3 SMM: inactive

What do the screens show for `COc1ccc(COC[C@@]23Oc4ccccc4[C@@H](NC(=O)N2C)[C@H]3CO)cc1`?
p53 mut binder: inactive; Myc binder: inactive; STAT3 SMM: inactive

What do the screens show for `C[C@@H]1CN([C@@H](C)CO)C(=O)c2cc(NS(C)(=O)=O)ccc2O[C@@H](C)CCCCO[C@H]1CN(C)S(=O)(=O)c1cn(C)cn1`?
p53 mut binder: inactive; Myc binder: inactive; ID4 binder: inactive; STAT3 SMM: inactive

Results for CCNS(=O)(=O)c1ccc(NC(=O)c2cc(-c3ccncc3)nc3c(C)c(Cl)ccc23)cc1 ?
p53 mut binder: inactive; Myc binder: inactive; ID4 binder: inactive; STAT3 SMM: inactive

What do the screens show for `C[C@H]1CN([C@@H](C)CO)C(=O)c2cccc(NC(=O)Nc3ccc4c(c3)OCO4)c2O[C@H]1CN(C)C(=O)NC1CCCCC1`?
p53 mut binder: inactive; Myc binder: inactive; ID4 binder: inactive; STAT3 SMM: inactive

Results for O=C(CCc1ccc(O)cc1)CC(CCc1ccc(O)cc1)O[C@@H]1OC[C@@H](O)[C@H](O)[C@H]1O (stereo partly specified) ?
p53 mut binder: inactive; Myc binder: inactive; ID4 binder: inactive; STAT3 SMM: inactive

What do the screens show for `C[C@@H]1CN([C@H](C)CO)C(=O)c2cc(NC(=O)Nc3ccc(C(F)(F)F)cc3)ccc2O[C@@H](C)CCCCO[C@@H]1CN(C)S(=O)(=O)c1cn(C)cn1`?
p53 mut binder: inactive; Myc binder: inactive; STAT3 SMM: inactive

How did CC(C)(C=O)Cc1cc(C(C)(C)C)c(O)c(C(C)(C)C)c1 do in these assays?
p53 mut binder: inactive; Myc binder: inactive; ID4 binder: inactive; STAT3 SMM: inactive

Results for CNC[C@H]1Oc2ccc(NC(=O)Cc3cn(C)c4ccccc34)cc2CC(=O)N([C@@H](C)CO)C[C@@H]1C ?
p53 mut binder: inactive; Myc binder: inactive; ID4 binder: inactive; STAT3 SMM: inactive

How did COc1ccc(COC[C@]23NC(=O)N[C@H](c4ccccc4O2)[C@H]3CO)cc1 do in these assays?
p53 mut binder: inactive; Myc binder: inactive; STAT3 SMM: inactive

What do the screens show for `Cc1ccc(F)cc1S(=O)(=O)N[C@@H]1CCN(Cc2ccc(C(F)(F)F)cc2)C1`?
p53 mut binder: inactive; Myc binder: inactive; STAT3 SMM: inactive

What do the screens show for `C[C@@H]1CCCCO[C@@H](CN(C)Cc2ccc(C(=O)O)cc2)[C@@H](C)CN([C@@H](C)CO)C(=O)c2cc(NS(=O)(=O)c3ccc(Cl)cc3)ccc2O1`?
p53 mut binder: inactive; Myc binder: inactive; STAT3 SMM: inactive

How did CC(C)NC(=O)Nc1cccc2c1O[C@H](CN(C)Cc1ccc(Cl)c(Cl)c1)[C@@H](C)CN([C@H](C)CO)C2=O do in these assays?
p53 mut binder: inactive; Myc binder: inactive; ID4 binder: inactive; STAT3 SMM: inactive

What do the screens show for `COc1ccc(CN(C)C[C@@H]2Oc3ccc(NS(=O)(=O)c4ccc(OC)cc4)cc3CC(=O)N([C@@H](C)CO)C[C@@H]2C)cc1`?
p53 mut binder: inactive; Myc binder: inactive; ID4 binder: inactive; STAT3 SMM: inactive

How did C[C@@H]1CN([C@@H](C)CO)C(=O)CCCn2cc(nn2)CO[C@H]1CN(C)C(=O)Nc1ccccc1F do in these assays?
p53 mut binder: inactive; Myc binder: inactive; ID4 binder: inactive; STAT3 SMM: inactive

Results for CC(C)NC(=O)N(C)C[C@@H]1OCCCC[C@@H](C)Oc2ccc(NC(=O)C3CCCCC3)cc2C(=O)N([C@@H](C)CO)C[C@@H]1C ?
p53 mut binder: inactive; Myc binder: inactive; ID4 binder: inactive; STAT3 SMM: inactive

Results for C[C@H]1CN([C@@H](C)CO)C(=O)c2cc(NC(=O)CCN3CCOCC3)ccc2O[C@H]1CN(C)C ?
p53 mut binder: inactive; Myc binder: inactive; ID4 binder: inactive; STAT3 SMM: inactive

What do the screens show for `Cc1ccccc1N1CCN(S(=O)(=O)CC23CCC(C[C@@H]2NC(=O)[C@@H](N)CCS(C)(=O)=O)C3(C)C)CC1` (stereo partly specified)?
p53 mut binder: inactive; Myc binder: inactive; ID4 binder: inactive; STAT3 SMM: inactive

Results for C[C@H]1CCCCO[C@@H](CN(C)Cc2ccncc2)[C@@H](C)CN([C@@H](C)CO)C(=O)c2cc(NS(=O)(=O)c3cn(C)cn3)ccc2O1 ?
p53 mut binder: inactive; Myc binder: inactive; STAT3 SMM: inactive

Results for CC(C)NC(=O)N(C)C[C@@H]1Oc2c(NS(=O)(=O)c3cccs3)cccc2C(=O)N([C@H](C)CO)C[C@@H]1C ?
p53 mut binder: inactive; Myc binder: inactive; STAT3 SMM: inactive

What do the screens show for `Cc1noc(C)c1S(=O)(=O)N(C)C[C@@H]1Oc2ccc(N(C)C)cc2CC(=O)N([C@@H](C)CO)C[C@@H]1C`?
p53 mut binder: inactive; Myc binder: inactive; ID4 binder: inactive; STAT3 SMM: inactive

What do the screens show for `C[C@H](CO)N1C[C@H](C)[C@H](CN(C)CC2CCCCC2)OCCCC[C@H](C)Oc2ccc(NS(=O)(=O)c3ccc(Cl)cc3)cc2C1=O`?
p53 mut binder: inactive; Myc binder: inactive; STAT3 SMM: inactive

What do the screens show for `COc1ccc(S(=O)(=O)N(C)C[C@@H]2Oc3ccc(NC(=O)CCC(F)(F)F)cc3C(=O)N([C@@H](C)CO)C[C@H]2C)cc1`?
p53 mut binder: inactive; Myc binder: inactive; ID4 binder: inactive; STAT3 SMM: inactive

What do the screens show for `C[C@H]1CN([C@@H](C)CO)C(=O)c2cccc(NC(=O)c3ccncc3)c2O[C@@H]1CN(C)Cc1ccc(C(F)(F)F)cc1`?
p53 mut binder: inactive; Myc binder: inactive; ID4 binder: inactive; STAT3 SMM: inactive

Results for CCO[C@H]1OC(C(=O)N2CCCC2)=C[C@@H](c2ccc(C(F)(F)F)cc2)[C@@H]1CCCO ?
p53 mut binder: inactive; Myc binder: inactive; STAT3 SMM: inactive

Results for Cc1cccc(OCCCC(=O)Nc2ccccc2[N+](=O)[O-])c1C ?
p53 mut binder: inactive; Myc binder: inactive; ID4 binder: inactive; STAT3 SMM: inactive

How did C[C@H](CO)N1C[C@H](C)[C@@H](CN(C)C(=O)Nc2cccc3ccccc23)OCCCC[C@H](C)Oc2ccc(NC(=O)c3ccncc3)cc2C1=O do in these assays?
p53 mut binder: inactive; Myc binder: active; ID4 binder: inactive; STAT3 SMM: inactive

Results for CC(C)NC(=O)Nc1cccc2c1O[C@H](CN(C)C)[C@@H](C)CN([C@@H](C)CO)C2=O ?
p53 mut binder: inactive; Myc binder: inactive; ID4 binder: inactive; STAT3 SMM: inactive

How did C[C@@H]1CN([C@@H](C)CO)C(=O)c2cc(N(C)C)ccc2O[C@@H](C)CCCCO[C@H]1CN(C)S(=O)(=O)c1cccs1 do in these assays?
p53 mut binder: inactive; Myc binder: inactive; ID4 binder: inactive; STAT3 SMM: inactive

How did C[C@@H]1CCCCO[C@@H](CN(C)Cc2ccncc2)[C@H](C)CN([C@@H](C)CO)C(=O)c2cc(N(C)C)ccc2O1 do in these assays?
p53 mut binder: inactive; Myc binder: inactive; ID4 binder: inactive; STAT3 SMM: inactive

Results for C[C@H](CO)N1C[C@H](C)[C@H](CN(C)Cc2ccc(C(=O)O)cc2)Oc2ccc(NC(=O)Nc3ccc(C(F)(F)F)cc3)cc2CC1=O ?
p53 mut binder: inactive; Myc binder: inactive; ID4 binder: inactive; STAT3 SMM: inactive

What do the screens show for `N#Cc1nc(COc2cccc(Cl)c2)oc1NCc1ccncc1`?
p53 mut binder: inactive; Myc binder: inactive; ID4 binder: inactive; STAT3 SMM: inactive

Results for Cc1cc(OCC(=O)Nc2ccc3oc(-c4ccncc4)nc3c2)cc(C)c1Cl ?
p53 mut binder: inactive; Myc binder: inactive; ID4 binder: inactive; STAT3 SMM: inactive

How did Cc1ccc(S(=O)(=O)N(C)C[C@H]2Oc3ccc(NS(C)(=O)=O)cc3C(=O)N([C@H](C)CO)C[C@H]2C)cc1 do in these assays?
p53 mut binder: inactive; Myc binder: inactive; ID4 binder: inactive; STAT3 SMM: inactive

How did C=C(C)[C@@H]1CC[C@]2(CO)CC[C@]3(C)[C@H](CC[C@@H]4[C@@]5(C)CC[C@H](O)C(C)(C)[C@@H]5CC[C@]43C)[C@@H]12 do in these assays?
p53 mut binder: inactive; Myc binder: inactive; ID4 binder: inactive; STAT3 SMM: inactive

How did CC(C)c1ccccc1S(=O)(=O)c1cc(N)c2ncccc2c1[N+](=O)[O-] do in these assays?
p53 mut binder: inactive; Myc binder: inactive; STAT3 SMM: inactive

What do the screens show for `C[C@@H]1CN([C@@H](C)CO)C(=O)c2cc(NS(=O)(=O)c3ccc(F)cc3)ccc2O[C@H]1CN(C)Cc1ccccc1`?
p53 mut binder: inactive; Myc binder: inactive; STAT3 SMM: inactive

What do the screens show for `C=C1C(=O)O[C@@H]2C[C@H](C)C3C[C@H](O)[C@H](O)[C@@]3(C)C[C@H]12` (stereo partly specified)?
p53 mut binder: inactive; Myc binder: inactive; ID4 binder: inactive; STAT3 SMM: inactive

What do the screens show for `Cc1ccc(-c2noc(CCC(=O)NC(C)(C)C)n2)cc1`?
p53 mut binder: inactive; Myc binder: inactive; ID4 binder: inactive; STAT3 SMM: inactive

Results for O=C(NCCCN1CCCC1=O)c1cc2ccccc2oc1=O ?
p53 mut binder: inactive; Myc binder: inactive; ID4 binder: inactive; STAT3 SMM: inactive

What do the screens show for `C[C@H](CO)N1C[C@H](C)[C@@H](CN(C)S(=O)(=O)c2ccc(F)cc2)Oc2ccc(NC(=O)C3CC3)cc2C1=O`?
p53 mut binder: inactive; Myc binder: inactive; ID4 binder: inactive; STAT3 SMM: inactive

What do the screens show for `COc1ccc(S(=O)(=O)Nc2ccc3c(c2)C(=O)N([C@@H](C)CO)C[C@H](C)[C@@H](CN(C)C(=O)c2ccncc2)OCCCC[C@H](C)O3)cc1`?
p53 mut binder: inactive; Myc binder: inactive; STAT3 SMM: inactive

How did CNC[C@@H]1Oc2ccc(NC(=O)Cc3cn(C)c4ccccc34)cc2CC(=O)N([C@H](C)CO)C[C@H]1C do in these assays?
p53 mut binder: inactive; Myc binder: inactive; ID4 binder: inactive; STAT3 SMM: inactive

Results for CNC[C@H]1Oc2ccc(NC(=O)Cc3cn(C)c4ccccc34)cc2CC(=O)N([C@H](C)CO)C[C@@H]1C ?
p53 mut binder: inactive; Myc binder: inactive; ID4 binder: inactive; STAT3 SMM: inactive

How did COc1ccc(S(=O)(=O)Nc2cccc3c2O[C@H](CN(C)Cc2ccncc2)[C@@H](C)CN([C@H](C)CO)C3=O)cc1 do in these assays?
p53 mut binder: inactive; Myc binder: inactive; ID4 binder: inactive; STAT3 SMM: inactive

Pulled by compound from the entries so far (4):
Results for Cc1cccc(OCCCC(=O)Nc2ccccc2[N+](=O)[O-])c1C ?
p53 mut binder: inactive; Myc binder: inactive; ID4 binder: inactive; STAT3 SMM: inactive

What do the screens show for `C[C@H](CO)N1C[C@H](C)[C@H](CN(C)CC2CCCCC2)OCCCC[C@H](C)Oc2ccc(NS(=O)(=O)c3ccc(Cl)cc3)cc2C1=O`?
p53 mut binder: inactive; Myc binder: inactive; STAT3 SMM: inactive

How did C[C@@H]1CN([C@@H](C)CO)C(=O)c2cc(N(C)C)ccc2O[C@@H](C)CCCCO[C@H]1CN(C)S(=O)(=O)c1cccs1 do in these assays?
p53 mut binder: inactive; Myc binder: inactive; ID4 binder: inactive; STAT3 SMM: inactive

What do the screens show for `Cc1noc(C)c1S(=O)(=O)N(C)C[C@@H]1Oc2ccc(N(C)C)cc2CC(=O)N([C@@H](C)CO)C[C@@H]1C`?
p53 mut binder: inactive; Myc binder: inactive; ID4 binder: inactive; STAT3 SMM: inactive
